Screens (PubChem BioAssay)
D2 agonist – Beta-Arrestin HTS for Positive Allosteric Modulators of the Human D2 Dopamine Receptor: Agonists; activation, % (concentration not given with the values); DiscoveRx PathHunter D2 beta-arrestin, luminescence, 90 min; 100% = 57 uM dopamine signal; 0.084% of 360,000 active; AID 624465, 2012; in the data active = activation above about 40%; inconclusive = about 15% to 40%; inactive = below about 15%; further: compound concentration not given in the record; the text of the record calls up to 30% inactive
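DiscoveRx PathHunter D2 beta-arrestin cells (2,100/well) attached overnight, then compound-stimulated 90 min at 37 C in HBSS/10 mM HEPES/0.1% Tween-20 buffer; beta-galactosidase complementation read by luminescence after 1 h at ambient temperature. Dopamine 57 uM final (EC100) as control.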
CtBP-E1A blk – qHTS Assay for Inhibitors of the CtBP/E1A Interaction. CtBP / adenovirus E1A interaction (AlphaScreen). AlphaScreen GST-E1A/His-CtBP binding, 1536-well; stronger effect = lower value; control for the full effect not named in the record. activity change, % (no concentration beside the values). 0.49% of 340,000 active. AID 651724, 2012; in the data active means activity change below about -65%; inconclusive means about -30% to -65%; inactive means above about -30%; further: on the % scale 0 is the no-effect control and ±100 the full control effect; compound concentration not given in the record
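Steps: dispense buffer (Tris pH 8.0, NaCl 300 mM, TCEP 1 mM, BSA, Tween 20); add 5X protein mix (GST-E1A, His-CtBP, 125 nM each); pin 23 nL compound; 2 h at 37 °C, dark; add 5X beads (50 ug/mL); 1 h; read.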
Six1-Eya2 inh – qHTS Assay for Inhibitors of the Six1/Eya2 Interaction | Homeobox protein SIX1 (Homo sapiens) + Protein phosphatase EYA2 (Homo sapiens), … | AlphaScreen GST-Six1/His-Eya2 binding, biochemical; stronger effect = lower value; control for the full effect not named in the record | activity change, % (test concentration not listed) | 0.56% of 360,000 active | AID 651725, 2012; in the data active = activity change below about -65%; inconclusive = about -30% to -65%; inactive = above about -30%; further: on the % scale 0 is the no-effect control and ±100 the full control effect; compound concentration not given in the record
Target sequence (O00167 whole entry, looked up): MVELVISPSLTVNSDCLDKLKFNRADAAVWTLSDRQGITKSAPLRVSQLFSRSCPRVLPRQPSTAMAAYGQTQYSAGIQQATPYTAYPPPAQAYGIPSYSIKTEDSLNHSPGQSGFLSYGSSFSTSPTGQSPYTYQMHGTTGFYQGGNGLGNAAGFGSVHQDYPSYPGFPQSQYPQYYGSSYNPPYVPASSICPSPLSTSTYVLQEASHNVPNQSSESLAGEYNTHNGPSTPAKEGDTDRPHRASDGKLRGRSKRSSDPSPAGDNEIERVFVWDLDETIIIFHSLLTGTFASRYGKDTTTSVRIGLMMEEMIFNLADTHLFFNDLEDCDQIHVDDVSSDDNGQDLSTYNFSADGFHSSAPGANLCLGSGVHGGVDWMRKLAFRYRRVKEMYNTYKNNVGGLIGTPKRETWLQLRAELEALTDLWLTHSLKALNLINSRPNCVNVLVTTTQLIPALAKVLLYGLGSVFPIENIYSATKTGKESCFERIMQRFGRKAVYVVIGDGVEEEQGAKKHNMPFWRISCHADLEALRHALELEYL
Target sequence (Q15475 whole entry, looked up): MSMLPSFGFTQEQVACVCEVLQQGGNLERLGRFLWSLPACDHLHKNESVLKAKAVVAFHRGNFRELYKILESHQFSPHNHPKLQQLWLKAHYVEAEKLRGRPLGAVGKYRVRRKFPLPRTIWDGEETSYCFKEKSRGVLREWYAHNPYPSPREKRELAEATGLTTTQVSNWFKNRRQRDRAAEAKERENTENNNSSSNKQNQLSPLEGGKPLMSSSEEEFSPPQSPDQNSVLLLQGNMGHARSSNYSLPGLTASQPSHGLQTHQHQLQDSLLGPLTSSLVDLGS
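Compounds are tested against tagged Six1 and Eya2 proteins bridged by glutathione donor and nickel acceptor beads; after a one-hour incubation at 37 °C without light, AlphaScreen emission is recorded.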
gsp agonist – qHTS for Agonist of gsp, the Etiologic Mutation Responsible for Fibrous Dysplasia/McCune-Albright Syndrome: qHTS. gsp mutant cells, cAMP HTRF, 30 min; control for the full effect not named in the record. Potency, µM (top dose mostly 76.9 µM), for the others: top-dose activation (cAMP increase), hits mostly activators. 0.13% of 340,000 active; active = well fitted activation curve with a large enough effect; inconclusive = small, poorly fitted or top-dose-only effect, or another doubt; inactive = no such curve, though single readings can be large or run the other way; cell line not stated here;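 further: phosphodiesterase inhibitor Ro 20-1724 added with compounds to block cAMP breakdown; potency means the concentration at half of the fitted maximal effect; nearly all actives have a fitted effect of over 60% in size; about a fifth of the inactives were tested at one dose only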
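Cells in DMEM/10% FBS with G418 were pretreated with compounds in DMSO plus […] (300 uM stock) for 30 min at 37C. cAMP was measured by HTRF (cAMP-d2 plus anti-cAMP antibody-K) after 30 min at room temperature.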
D2 potentiator – Beta-Arrestin HTS for Positive Allosteric Modulators of the Human D2 Dopamine Receptor: Potentiators | D(2) dopamine receptor (Homo sapiens), P14416 | DiscoveRx D2 beta-arrestin cells, luminescence, 90 min; 100% = 57 uM dopamine signal | potentiation, % (concentration not given with the values) | 0.23% of 360,000 active | AID 624464, 2012; active = potentiation of 50% or more; inconclusive = 30% to 50%; inactive = 30% or less;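 further: compound concentration not given in the record; tested on top of an EC20 dose of dopamine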
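D2 cells co-treated with compound plus 50 nM dopamine (EC20) for 90 min at 37 deg C to detect potentiation. Beta-arrestin recruitment was read as enzyme-fragment luminescence after 1 h at ambient temperature. Full response was set by 57 uM dopamine.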
gsp antagonist – qHTS for Antagonists of gsp, the Etiologic Mutation Responsible for Fibrous Dysplasia/McCune-Albright Syndrome: qHTS; gsp-mutant cells, cAMP HTRF, 30 min; control for the full effect not named in the record; Potency, µM (doses to about 76.9 µM), for the others: at the highest dose activity change, negative = inhibition, hits mostly inhibitors; 0.4% of 340,000 active; AID 624288, 2012; active = falling curve of any shape with a large fitted effect; inconclusive = falling curve, mostly with a smaller effect; inactive = flat or rising curve; cell line not stated here;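 further: intracellular cAMP measured with PDE inhibitor Ro 20-1724 present during compound exposure; potency means the concentration at half of the fitted maximal effect; on the % scale 0 is the no-effect control and ±100 the full control effect; nearly all actives have a fitted effect of over 65% in size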
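HTRF cAMP measurement after 30 min RT detection following 30 min, 37C compound treatment alongside […] (added as 300 uM solution) in G418-selected cells seeded at 2000/well and grown 16–24 h.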
Numbers without * were called inactive; ? = inconclusive; . = no result given; [ ] = dose if it differs, or a comment.

A first look:
SMILES,D2 agonist,CtBP-E1A blk,Six1-Eya2 inh,gsp agonist,D2 potentiator,gsp antagonist
CCCNC(=O)CSc1nc(COc2ccccc2)nc2ccccc12,1.9,-4.3,-9.1,3.5%[15.4 µM],-1.1,-3.9%
COc1ccccc1C(=O)COC(=O)c1ccc(Cl)nc1,-2.5,.,13.7,6.5%,3.2,3.7%

The whole of this part, previewed entries included:
SMILES,D2 agonist,CtBP-E1A blk,Six1-Eya2 inh,gsp agonist,D2 potentiator,gsp antagonist
CCCNC(=O)CSc1nc(COc2ccccc2)nc2ccccc12,1.9,-4.3,-9.1,3.5%[15.4 µM],-1.1,-3.9%
COc1ccccc1C(=O)COC(=O)c1ccc(Cl)nc1,-2.5,.,13.7,6.5%,3.2,3.7%
CNc1cnc(-c2ccc(F)c(F)c2F)cn1,-6.8,16.0,1.0,.,-2.4,.
Nc1cc(=O)[nH]c(SCc2csc(-c3ccccc3)n2)n1,2.0,1.8,-7.1,6.5%,14.1,0.6%
O=C(O)c1ccccc1C(=O)NC1=NN(c2ccccc2)CC1,-1.6,-1.1,1.3,-14.6%,7.9,-21.7%
NC(=O)CSc1nnc(Cc2ccc3c(c2)OCO3)o1,-3.1,-5.2,17.3,18.5%,-4.3,6.3%
COc1ccc(C=O)cc1COc1c(F)c(F)cc(F)c1F,-4.2,14.1,24.7,-12.4%,-17.5,-6.0%
CCOC(=O)CNC(=O)CSc1nnc(Cn2c(=O)sc3ccccc32)n1C,-3.6,-2.8,6.1,-28.8%,-3.5,-8.4%
CC(C)c1c(O)c2c(n(-c3ccccc3)c1=O)CCCC2,2.2,1.2,-11.0,-5.5%[15.4 µM],1.5,5.9%
CCCC(=O)Nc1ccc(NC(=O)C2CC2)cn1,1.5,0.0,9.2,1.9%[15.4 µM],-6.4,-11.2%
C=C1CCN([C@@H](CC(C)C)C(=O)N2CCCC2)S(=O)(=O)c2ccccc21,-1.8,2.6,1.0,20.2%,-12.8,6.0%
Cc1oc(-c2ccccc2F)nc1CS(=O)CC(=O)NCc1ccccn1 (stereo not given),7.3,-29.5,-5.5,?,-12.7,-1.0%
O=C(CC1C(=O)NCCN1Cc1ccc(-c2ccccc2)cc1)NCCc1ccccn1 (stereo not given),-0.4,0.4,-4.6,5.3%,-5.0,0.8%
COc1ccc(NS(=O)(=O)c2cc(NC(=O)Cc3c(F)cccc3Cl)ccc2OC)cc1,4.8,-1.1,-0.9,1.0%,24.7,-8.0%
Nc1nn2c(-c3ccccc3)cc(=O)[nH]c2c1N=Nc1ccc(Br)cc1,-5.6,.,17.1,-206.5%[inhibitor],-10.3,-11.1%
CCNC(=S)N1CCC(c2nc3ccccc3s2)CC1,-1.0,-1.3,-1.1,-46.4%[inhibitor],-6.4,-10.5%
CCCC(OC(=O)CN1C(=O)COc2ccccc21)C(=O)NC1CCCC1 (stereo not given),3.9,0.8,2.2,-28.7%,-2.7,-0.2%
CCC1(c2ccc(Cl)cc2)NC(=S)N(c2ccc(C)c(C)c2)N1 (stereo not given),-2.8,7.0,-8.1,22.1%,-3.4,-15.2%
O=C(Cc1ccccc1)N/N=C/c1ccc2c(c1)OCO2,0.0,.,2.2,-19.9%[15.4 µM],-3.7,-13.7%
CSc1nc2c(c(=O)[nH]c(=O)n2C)n1Cc1ccccc1Cl,-3.8,-4.9,3.5,-9.8%,-3.7,-12.0%
CC1CCC(NC(=O)Cn2cc3c(n2)CCCC3)CC1 (stereo not given),-7.1,-15.2,10.5,3.0%,-2.0,-7.2%
CCN(CC)C(=O)c1c([N+](=O)[O-])c(C(C)(C)C)nn1C,-4.2,1.0,0.4,8.7%[15.4 µM],-5.5,14.3%
CCCCCC(=O)N1C[C@@H](n2cc(COC(=O)c3ccccc3)nn2)[C@H](O)C[C@@H]1c1ccc(OC)cc1,-7.1,-15.7,-7.9,-16.6%,-1.0,.
Cc1cnc(C(=O)Nc2ccc(OC(F)(F)F)cc2)cn1,-3.9,.,6.4,-0.7%,-8.1,5.0%
CN1C(=O)C(N=Nc2ccccc2C(=O)O)N(C)C1=S (stereo not given),-3.1,.,-5.5,8.9%[15.4 µM],-8.0,-25.3%
CC1(C(=O)NS(=O)(=O)c2ccc(Cl)cc2)CCN1C(=O)Cc1cccs1 (stereo not given),-1.3,3.0,2.8,.,4.1,.
O=C(NCCSc1ncc(-c2ccccc2)[nH]1)c1ccco1,-3.2,-3.2,-1.5,7.7%,-11.9,0.1%
C[C@@H]1CN([C@@H](C)CO)C(=O)CCCn2nncc2CO[C@@H]1CN(C)S(=O)(=O)c1ccc(-c2ccccc2)cc1,-7.5,-13.4,-6.5,-34.1%[inhibitor],2.4,.
O=C(CN1C(=O)NC2(CCCC2)C1=O)OCCOc1ccc(Cl)cc1,-0.8,0.5,-6.7,4.5%[15.4 µM],-3.1,12.9%
COc1cccc(C2CC(=O)C3=C(C2)Nc2ccccc2N(C(=O)CCC(=O)O)C3c2ccc(F)cc2)c1 (stereo not given),-2.4,-5.6,-12.7,-22.0%[15.4 µM],-6.4,7.9%
Cc1ccc(/C=N/n2cnc3sc(-c4ccccc4)cc3c2=O)o1,-2.5,-0.8,1.3,-34.1%[inhibitor],-1.9,-15.0%
O=C(NN1CCOCC1)c1cn(-c2ccccc2)nc1-c1cccs1,-1.5,-7.5,2.4,?,-13.1,-10.2%
CC1CC(=O)NN=C1c1ccc(NCCO)c([N+](=O)[O-])c1 (stereo not given),-1.8,9.7,2.0,-73.6%[inhibitor],-4.5,-1.9%
Cc1nn(-c2ccc(F)cc2)c2sc(C(=O)O)cc12,0.4,8.2,-3.9,-20.2%,2.1,-4.2%
CCOC(=O)N1CCN(CC(O)COc2ccc(OC)cc2C(C)(C)C)CC1 (stereo not given),2.2,5.9,0.9,-28.4%,-2.2,-5.1%
CN1OC[C@@H]2CN(C(=S)Nc3ccc(C#N)cc3)[C@H](c3ccc(N4CCCCC4)cc3)C[C@@H]21,-3.4,-9.8,-10.7,.,-5.6,.
CCOC(=O)c1c(NC(=O)COC(=O)c2nc(Cl)ccc2Cl)sc(C(=O)N(C)C)c1C,-2.3,2.0,21.9,10.4%,-13.8,-9.1%
COc1ccc(C(=O)N2CCOC2CNC(=O)C(=O)NCc2ccc(C)cc2)cc1 (stereo not given),-4.3,3.8,4.6,23.7%,-9.8,.
O=C(C1=C[C@H](c2ccc(Br)cc2)C[C@H](OCc2ccc(CO)cc2)O1)N1CCN(Cc2ccc3c(c2)OCO3)CC1,-1.9,-12.7,-15.3,.,-15.6,-16.4%
CC(Sc1nc2ccccc2c(=O)n1CC1CCCO1)C(=O)N(C)c1ccccc1 (stereo not given),2.5,-12.2,-0.6,-16.8%,0.1,-9.5%
COCCNC(=O)C1(C)CCN(C(=O)c2cccc(C)c2C)C1 (stereo not given),-1.5,0.2,0.7,.,-10.3,.
CCOC(=O)N1C(=O)[C@](CC)(c2ccccc2)N1C(=O)OCC,-0.3,3.9,-1.1,.,-5.6,10.0%
Cc1cccc(COc2ccc(/C=C3/C(=O)N(C)C(=S)N3C)cc2)c1,1.4,7.6,7.6,-10.0%,-0.9,1.6%
COc1ccc(C(=O)N2CCN(C(=O)c3ccncc3)CC2)cc1,0.0,11.8,1.9,-1.5%,-7.7,0.3%
COc1ccc(NC(=O)CSc2nc3ccccc3c(=O)n2CCCN2CCC(C)CC2)c(OC)c1,-2.5,2.1,12.1,7.8%[15.4 µM],-15.6,-1.1%
C=CCn1c(N)c(C(=O)OC(C)(C)C)c2nc3ccccc3nc21,-6.6,-1.3,-5.7,9.0%[15.4 µM],-6.4,-29.2%
COc1ccc(N2CCN(S(=O)(=O)c3ccc(-c4cnc(C5CC5)o4)cc3)CC2)cc1,1.9,-16.2,-15.2,-102.2%[inhibitor],-5.8,0.0%
CCC1(c2ccc(F)cc2)NC(=O)N(CC(=O)Nc2cc(S(=O)(=O)N(C)C)ccc2Cl)C1=O (stereo not given),-0.7,.,-10.1,-2.5%,-4.7,-9.2%
O=C1C2CC=C(Cl)CC2C(=O)N1CCc1c[nH]c2ccccc12 (stereo not given),-1.9,0.0,-1.3,-7.6%,1.7,4.8%
CC1CC(C)(C)NC(=S)N1CCC(=O)NCc1ccc(Cl)cc1 (stereo not given),1.1,-8.1,9.9,-1.7%[15.4 µM],-0.3,15.9%
CNC(=S)N1N=C(c2ccccc2)CC1c1ccccc1Cl (stereo not given),-1.0,3.5,7.8,21.3%,-1.5,-12.8%
COC(=O)[C@@]1(Cc2ccccc2)[C@H]2C(=O)N(C)C(=O)[C@H]2[C@H]2CN=C(SCc3ccc(C#N)cc3)N21,-0.1,4.6,-3.1,.,-4.0,2.3%
Cn1c(=O)[nH]c(=O)c2c1nc(N1CCOCC1)n2CC(O)COc1ccc2ccccc2c1 (stereo not given),-0.4,0.0,-11.3,9.8%,5.8,-4.4%
COCCNC(=O)NC(=O)CN1C(=O)NC(Cc2c[nH]c3ccccc23)C1=O (stereo not given),-3.4,18.2,-4.6,9.7%[15.4 µM],-2.4,0.2%
Cc1cc(C(=O)NCc2ccco2)on1,-7.4,0.5,7.7,17.9%,7.5,0.1%
CC(=O)Nc1ccccc1Sc1ccccc1,-0.2,6.8,0.4,-3.8%,-3.8,-5.6%
CC1CCc2c(sc(NC(=O)c3ccc(-c4ccccc4[N+](=O)[O-])o3)c2C#N)C1 (stereo not given),-3.6,10.2,-4.8,15.4%,-17.2,-10.0%
O=C(NCCc1ccccn1)c1ccc2nc(Cc3ccccc3F)oc2c1,-2.7,0.0,21.8,-1.9%,-16.5,-7.8%
COc1ccc(CN(CC2CCC(C(=O)O)CC2)C(=S)Nc2ccccc2OC)cc1 (stereo not given),-0.3,13.2,0.2,-29.2%,2.6,-20.0%
COc1ccccc1CNC(=O)c1cc(-c2ccccc2)nn1Cc1cc(C)no1,-1.8,3.4,-0.5,15.8%,-3.4,-9.5%
Cc1ccc(C(NC(=O)N2CC(C)OC(C)C2)C(Cl)Cl)cc1F (stereo not given),-1.0,5.6,-4.6,16.2%,-7.5,13.3%
